Screening data deposited in PubChem by several laboratories.
RecA splice inh = Mtb RecA intein splicing inhibitors, primary screen, biochemical, fluorescence, HTS | Protein RecA (Mycobacterium tuberculosis (strain ATCC 25618 / H37Rv)), P9WHJ3 | cell-free RecA intein splicing | inhibition, %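 (about 9 µM by stock and volumes)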 | 0.75% of 290,000 active | AID 2221, 2009; in the data active = inhibition above about 30%; inconclusive = no clear call, values can overlap the other calls;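 also: 0% = vehicle wells and 100% = reference inhibitor control wells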
Target sequence (P9WHJ3 whole entry, looked up, canonical isoform): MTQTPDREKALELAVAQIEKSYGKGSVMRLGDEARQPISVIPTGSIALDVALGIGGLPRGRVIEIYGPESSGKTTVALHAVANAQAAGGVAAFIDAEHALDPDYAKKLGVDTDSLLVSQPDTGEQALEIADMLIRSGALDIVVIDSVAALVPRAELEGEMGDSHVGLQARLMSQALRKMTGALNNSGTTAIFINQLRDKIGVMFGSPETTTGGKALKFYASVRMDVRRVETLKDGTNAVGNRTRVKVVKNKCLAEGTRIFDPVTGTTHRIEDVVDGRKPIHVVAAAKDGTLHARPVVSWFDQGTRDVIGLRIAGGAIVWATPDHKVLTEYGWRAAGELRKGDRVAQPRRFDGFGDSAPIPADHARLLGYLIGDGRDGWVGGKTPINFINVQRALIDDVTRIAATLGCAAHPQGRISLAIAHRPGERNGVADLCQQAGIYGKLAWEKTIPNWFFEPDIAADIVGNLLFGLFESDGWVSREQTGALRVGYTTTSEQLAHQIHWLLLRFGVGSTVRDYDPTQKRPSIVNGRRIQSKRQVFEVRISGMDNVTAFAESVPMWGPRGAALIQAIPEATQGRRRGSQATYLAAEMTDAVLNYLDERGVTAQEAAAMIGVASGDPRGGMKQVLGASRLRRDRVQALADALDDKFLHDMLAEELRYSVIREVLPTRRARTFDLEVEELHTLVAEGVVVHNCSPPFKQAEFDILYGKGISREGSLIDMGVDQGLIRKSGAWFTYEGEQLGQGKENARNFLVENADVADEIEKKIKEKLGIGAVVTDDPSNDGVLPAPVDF
Mtb growth = M. tuberculosis H37Rv growth inhibitors, H37Rv strain (AID 1626); inhibition, % at 10 µM, or IC50 in µM where a hit was titrated; 0.95% of 220,000 active; M. tuberculosis H37Rv growth inhibition; higher % means a stronger effect;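 active = confirmed in a dose series; inconclusive = inhibition above 80% but not taken into the dose series; inactive = below 80% or under 30% at every dose of the series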;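 also: bacteria incubated seven days before Alamar blue readout; 0% = bacteria only wells and 100% = bacteria with antibiotic wells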
Mtb bLac sens = beta-lactam sensitization of Mtb H37Rv, H37Rv | M. tuberculosis H37Rv growth with meropenem, percent inhibition; hits of this screen are not shown here | inhibition, % at 25 µM | 0.27% of 330,000 active;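 active = about 74% or more and at least 40 points above the plate without the antibiotic, then above 30% in a dose series; inconclusive = first-round hits that could not be retested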;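 also: growth measured after seven days incubation then overnight dye step; 0% = bacteria only wells and 100% = bacteria with antibiotic; twin plates without the antibiotic show which effects depend on it; some results filed as inactive read as strong as hits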
YopH PTP inh = YopH tyrosine phosphatase inhibitors, primary screen, biochemical, fluorescence Ex485/Em525 | 0.16% of 140,000 active | AID 898, 2007 | inhibition, %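 (about 10 µM by stock and volumes)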;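 active = inhibition of 50% or more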;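 also: controls were vehicle for no effect and minimum signal wells for full effect; inactives centre near -20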
Arbovirus anti = antivirals against arbovirus infection, primary screen, cell-based, full library, 10K replicate subset. arbovirus infection cell-based antiviral screen. AID 1251, 2008. 0.37% of 200,000 active. inhibition, % at 10 µM;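 active = inhibition from about 30%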;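 also: bluetongue infection of BSR cells; cell survival read as ATP light after 72 h; 0% = infected wells without compound and 100% = uninfected wells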
Arbovirus anti repeat = further read-out of Arbovirus anti, marked with its call; inhibition, %; measured here: 10K subset replicate screen; many hits read low in the repeat;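 first of two repeat runs on a subset; 0% = infected and 100% = uninfected wells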
An asterisk follows results filed as active. A portion of the library; count on the stated rates, not on these rows.

Start of the listing, in advance, 5 compounds:
`COc1ccc(/C(N)=N/OC(=O)CC2CCCCC2)cc1OC` gave RecA splice inh 2.2 and Mtb bLac sens 0.
`Cc1csc(SCC(=O)NCc2cccc(Cl)c2)n1` gave RecA splice inh 5.0, Mtb growth 3%, Mtb bLac sens -2 and Arbovirus anti -10.
For Cc1cccc(-c2noc(-c3ccccc3C(=O)NCC3CCCO3)n2)c1 (configuration not stated) the results were RecA splice inh 1.7, Mtb growth 3%, Mtb bLac sens 4, YopH PTP inh -12 and Arbovirus anti -4.
CCN(CC)CCCN1C(=O)C(=O)/C(=C(/O)c2cc(C)ccc2C)C1c1cccnc1 (configuration not stated) was read as RecA splice inh -1.3, Mtb growth -1%, Mtb bLac sens -6, YopH PTP inh -11 and Arbovirus anti -2.
Screening CCCCCCCOc1ccc(C2(C)NC(=O)NC2=O)cc1 (configuration not stated) returned RecA splice inh -0.3 and Mtb bLac sens -4.

The listing, previewed entries included:
`COc1ccc(/C(N)=N/OC(=O)CC2CCCCC2)cc1OC` gave RecA splice inh 2.2 and Mtb bLac sens 0.
`Cc1csc(SCC(=O)NCc2cccc(Cl)c2)n1` gave RecA splice inh 5.0, Mtb growth 3%, Mtb bLac sens -2 and Arbovirus anti -10.
For Cc1cccc(-c2noc(-c3ccccc3C(=O)NCC3CCCO3)n2)c1 (configuration not stated) the results were RecA splice inh 1.7, Mtb growth 3%, Mtb bLac sens 4, YopH PTP inh -12 and Arbovirus anti -4.
CCN(CC)CCCN1C(=O)C(=O)/C(=C(/O)c2cc(C)ccc2C)C1c1cccnc1 (configuration not stated) was read as RecA splice inh -1.3, Mtb growth -1%, Mtb bLac sens -6, YopH PTP inh -11 and Arbovirus anti -2.
Screening CCCCCCCOc1ccc(C2(C)NC(=O)NC2=O)cc1 (configuration not stated) returned RecA splice inh -0.3 and Mtb bLac sens -4.
For COCCN1CCN(Cc2cn(C)nc2-c2ccc(Oc3ccccc3)cc2)CC1 the results were RecA splice inh -0.5, Mtb growth -10% and Mtb bLac sens -1.
For O=C(CCN1C(=O)/C(=C\c2ccccc2)SC1=S)Nc1ccc(C(=O)O)cc1 the results were RecA splice inh 6.7 and Mtb bLac sens -3.
For COc1ccc(C(=O)n2nc(C)cc2Nc2ccccc2)cc1 the results were RecA splice inh 1.1, Mtb growth -3%, Mtb bLac sens -3, YopH PTP inh -32 and Arbovirus anti 3.
Screening COc1cc(/C=N/N2CCN(C3c4ccccc4-c4ccccc43)CC2)ccc1O returned RecA splice inh -2.7, Mtb growth -3%, Mtb bLac sens -12, YopH PTP inh -29 and Arbovirus anti -44.
`Cc1ccccc1NS(=O)(=O)c1cc(C(=O)NCCSC2CCCCC2)ccc1C` gave RecA splice inh 8.9, Mtb growth -7%, Mtb bLac sens 2, YopH PTP inh -19 and Arbovirus anti -27.
`O=C(CN1CCN(c2ccc(F)cc2)CC1)c1ccc(O)cc1O` gave RecA splice inh -4.8 and Mtb bLac sens 4.
Cc1ccc(NC(=O)CNC(=O)c2ccc(Oc3ccccc3)cc2)nc1 was read as RecA splice inh -0.1 and Mtb bLac sens -3.
COc1cc(CNc2ccc3[nH]c(=O)[nH]c3c2)ccc1OCc1ccc(Cl)cc1 was read as RecA splice inh 0.9 and Mtb bLac sens 17.
`Cc1cc(NC(=O)CSc2nnc(-c3ccncc3)n2-c2ccccc2)no1` gave RecA splice inh -2.9, Mtb growth -2%, Mtb bLac sens -6 and Arbovirus anti 1.
Screening COc1ccc(-c2cc(C(F)F)n3ncc(C(=O)N4CCc5ccccc54)c3n2)cc1 returned RecA splice inh -1.9, Mtb growth 8%, Mtb bLac sens -1 and Arbovirus anti -18.
`O=C(NCC1CCCO1)c1ccc(Cl)c(F)c1F` (configuration not stated) gave RecA splice inh -0.1, Mtb growth 1%, Mtb bLac sens -6, YopH PTP inh -33 and Arbovirus anti -3.
For O=C(CCN1C(=O)c2ccccc2C1=O)Nc1ccccc1C(=O)N1CCOCC1 the results were RecA splice inh 1.4, Mtb growth 9%, Mtb bLac sens -8, YopH PTP inh -6 and Arbovirus anti 3.
`O=c1c(Cc2ccc(F)cc2)c(O)ccn1C1CCCCC1` gave RecA splice inh -0.4, Mtb growth 2%, Mtb bLac sens 36, YopH PTP inh -13 and Arbovirus anti 0.
For COC(=O)CC1=Nc2ccccc2NC(=O)C1 the results were RecA splice inh -3.9, Mtb growth 0%, Mtb bLac sens 3, YopH PTP inh 0 and Arbovirus anti -3.
S=C(NCCSCc1c(Cl)cccc1Cl)Nc1ccccc1 was read as RecA splice inh 16, Mtb growth 10%, Mtb bLac sens 76, YopH PTP inh -27 and Arbovirus anti -37.
`CN(C[C@@H](Cc1cccc2ccccc12)N(C[C@H](Cc1ccccc1)N(CCc1ccccc1)N=O)N=O)N=O` gave RecA splice inh 2.9, Mtb growth 2%, Mtb bLac sens -6 and Arbovirus anti 1.
For COC(=O)Cc1ccc(NC(=S)Nc2cccc(C)n2)cc1 the results were Mtb growth inconclusive, Mtb bLac sens 65 and Arbovirus anti -7.
For CCC(=Nc1cccc(C(F)(F)F)c1)c1c(O)n(C)c(=O)n(C)c1=O the results were RecA splice inh 0.0, Mtb growth -1% and Mtb bLac sens -8.
Screening Cc1nc(SC2CC(=O)N(c3ccc([N+](=O)[O-])cc3)C2=O)nc2c1CCCC2 (configuration not stated) returned RecA splice inh -0.7, Mtb growth -9%, Mtb bLac sens -2, YopH PTP inh -41 and Arbovirus anti 4.
For CC(=O)C1=C(O)C(=O)N(Cc2ccco2)C1c1cccc(F)c1 (configuration not stated) the results were RecA splice inh -2.2, Mtb growth -1%, Mtb bLac sens 2 and Arbovirus anti 21.
CCC(NC(=O)CCl)c1ccc(C)cc1 (configuration not stated) was read as RecA splice inh 13, Mtb growth 5%, Mtb bLac sens 89 and Arbovirus anti 18.
For CC(=O)c1cccc(NC(=O)c2ccc3c(c2)C(=O)N(Cc2cccnc2)C3=O)c1 the results were RecA splice inh -2.7 and Mtb bLac sens 6.
`CCCCNc1nc2c(c(=O)n(C)c(=O)n2C)n1Cc1cccc(OC)c1` gave RecA splice inh 0.9, Mtb growth 8%, Mtb bLac sens -3, YopH PTP inh 23 and Arbovirus anti 5.
`CCOc1cc(C(=O)NCCC(=O)N2CCC3(CC2)NCCc2[nH]cnc23)cc(OCC)c1OCC` gave RecA splice inh -0.3 and Mtb bLac sens -6.
Screening O=c1[nH]c2c(Br)cnc([N+](=O)[O-])c2[nH]1 returned RecA splice inh -0.6, Mtb growth 0% and Mtb bLac sens 7.
Screening CCCOc1ccccc1C(=O)N(Cc1cccs1)C1CCS(=O)(=O)C1 (configuration not stated) returned RecA splice inh 1.5, Mtb growth 4%, Mtb bLac sens 0, YopH PTP inh -31 and Arbovirus anti 3.
CC1Cn2c(nnc2-c2ccccc2O)S1 (configuration not stated) was read as RecA splice inh -1.1, Mtb growth 3%, Mtb bLac sens inconclusive, YopH PTP inh -10, Arbovirus anti 15 and Arbovirus anti repeat 2.
Screening O=C(c1ccncc1)N1CCN(C2CCC(c3ccccc3)CC2)CC1 (configuration not stated) returned RecA splice inh -0.8, Mtb growth -1% and Mtb bLac sens -1.
Screening COc1n[nH]c(C(=O)Nc2cc(F)ccc2C)c1[N+](=O)[O-] returned RecA splice inh -0.4, Mtb growth 8%, Mtb bLac sens -4, YopH PTP inh -9 and Arbovirus anti 2.
CCOC(=O)c1cccnc1SC(CC)C(=O)NCc1ccco1 (configuration not stated) was read as RecA splice inh -0.1, Mtb growth -7%, Mtb bLac sens -2, YopH PTP inh -29 and Arbovirus anti 6.
Screening COCCNC(=O)CSc1nc2sc(C)c(C)c2c(=O)n1-c1ccccc1 returned RecA splice inh 1.1, Mtb growth -1% and Mtb bLac sens -2.
O=C(CSc1ccc(-c2ccccn2)nn1)NCc1ccc(Cl)cc1 was read as RecA splice inh 0.8, Mtb growth 76%, Mtb bLac sens 3 and Arbovirus anti -37.
`COC(=O)COc1cccc(NC(=O)C(c2ccccc2)c2ccccc2)c1` gave RecA splice inh 6.0 and Mtb bLac sens -1.
Screening Cc1cc(C)n(S(=O)(=O)c2ccc(C)c(C)c2)n1 returned RecA splice inh 1.7 and Mtb bLac sens 2.
`Cc1cccc(CN2CCN(Cc3cccc4nonc34)CC2CCO)n1` (configuration not stated) gave RecA splice inh 5.8, Mtb growth -13%, Mtb bLac sens -2 and Arbovirus anti 4.
For CN(C)C(=O)c1ccc(NC(=O)COc2cccc(Oc3ccccc3)c2)cc1 the results were RecA splice inh 2.0 and Mtb bLac sens 1.
`CCCN(C(=O)COC(=O)COc1c(C)cccc1C)c1c(N)n(Cc2ccccc2)c(=O)[nH]c1=O` gave RecA splice inh -0.6 and Mtb bLac sens -3.
Screening CN(C(=O)c1ccc(F)cc1)c1ccccc1C(=O)NCc1ccccc1 returned RecA splice inh 3.2 and Mtb bLac sens -12.
`CCOc1ccccc1NC=C1C(=O)OC2(CCCCC2)OC1=O` gave RecA splice inh -0.5, Mtb growth -7%, Mtb bLac sens 0, YopH PTP inh -3 and Arbovirus anti 3.
Screening O=C(CSC1=NCCN1)NC1CCCCCC1 returned RecA splice inh -1.3, Mtb growth -11%, Mtb bLac sens -7, YopH PTP inh 8 and Arbovirus anti -1.
Screening C/C(=N\NC(=O)c1ccccc1)c1c(O)n(Cc2ccccc2)c(=O)[nH]c1=O returned RecA splice inh 0.1, Mtb growth 2% and Mtb bLac sens -2.
CC1CCCN(CCCOc2ccccc2-c2ccccc2)C1 (configuration not stated) was read as RecA splice inh -0.4, Mtb growth 4% and Arbovirus anti 15.
`COc1ccccc1C(=O)NC(=O)CSc1cccc[n+]1[O-]` gave RecA splice inh -3.7, Mtb growth -2%, Mtb bLac sens 2 and Arbovirus anti -3.
For O=c1c2c3c(sc2nc(NCCO)n1-c1ccccc1)CCCC3 the results were RecA splice inh -1.5 and Mtb bLac sens 1.
For FC(F)(F)c1cccc(NC(=S)NC(c2ccccc2)c2ccccc2)c1 the results were RecA splice inh -0.7, Mtb growth 12%, Mtb bLac sens -5, YopH PTP inh -28 and Arbovirus anti 1.
For CCC(CO)(CO)N(CC(=O)Nc1ccc(OC)cc1)CC(=O)Nc1ccc(OC)cc1 the results were RecA splice inh 3.9 and Mtb bLac sens 93.
For COc1ccc(CN2CCCC(C(=O)c3ccc(SC)cc3)C2)cc1Cn1cccn1 (configuration not stated) the results were RecA splice inh -8.8, Mtb growth inconclusive, Mtb bLac sens 93 and Arbovirus anti -1.
For CNC(=O)Oc1ccc2ncccc2c1 the results were RecA splice inh 2.6, Mtb growth -1%, Mtb bLac sens 42, YopH PTP inh -27 and Arbovirus anti 4.
Cc1c(C(=O)O)sc2nc3n(c(=O)c12)CCC3 was read as RecA splice inh 0.4, Mtb growth 2%, Mtb bLac sens -3 and Arbovirus anti 13.
For COc1ccccc1OCc1ccc(C(=O)N2CCN(C)CC2)o1 the results were RecA splice inh 2.1, Mtb growth -5%, Mtb bLac sens 5, YopH PTP inh -24 and Arbovirus anti 5.
Screening COc1ccc(F)cc1S(=O)(=O)N1CCCN(S(=O)(=O)c2cc(F)ccc2OC)CC1 returned RecA splice inh -0.2, Mtb growth -4%, Mtb bLac sens -3, YopH PTP inh -5 and Arbovirus anti 10.
CC(=O)Nc1c(C(=O)N2CCCCCC2)cnn1-c1ccccc1 was read as RecA splice inh 1.4, Mtb growth -11%, Mtb bLac sens -2, YopH PTP inh -34 and Arbovirus anti 7.
For CC(=O)Nc1ccc(CN2CCCC(CCC(=O)NCc3ccccc3F)C2)cc1 (configuration not stated) the results were Mtb growth -5%, Mtb bLac sens 0 and Arbovirus anti 2.
Screening CC(C)c1ccc(C(C(=O)NC2CCCCC2)N(C(=O)c2csnn2)C2CC2)cc1 (configuration not stated) returned RecA splice inh 2.1 and Mtb bLac sens 8.
For COC(=O)[C@@H](NC(=O)NCc1cccs1)C(C)C the results were RecA splice inh -2.3, Mtb growth -3%, Mtb bLac sens -7, YopH PTP inh -42 and Arbovirus anti -5.
Cc1ccccc1-c1nc(CS(=O)(=O)CC(=O)N2CCc3ccccc3C2)c(C)o1 was read as RecA splice inh 6.8, Mtb growth -9%, Mtb bLac sens 2, YopH PTP inh -11 and Arbovirus anti -2.
